Bioassay records: PubChem, several laboratories
LANA-H2B inh: blocks KSHV LANA binding to histone H2A/H2B; Q9QR71; cell-free LANA-H2A/H2B peptide, fluorescence polarization; inhibition, % (concentration not given with the values); 320,000 compounds, 0.6% hits; in the data active = inhibition mostly above about 10%, no sharp cut-off; inactive = mostly below about 6.7%;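 also: stock transfer was 7.5 nL into about 10 µL; 0% = median of vehicle wells and 100% = median of positive control wells; one replicate is shown; the record names a cut of 25% in any replicate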
T cruzi inh: T. cruzi replication inhibition. T. cruzi beta-gal in NIH3T3, luminescence, 90 h. inhibition, % (no concentration beside the values). 300,000 compounds, 1.4% hits;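 active = mean inhibition across valid replicates above about 55%, limit read from the data; inconclusive = mean below that limit but half or more replicates reach it; inactive = mean below it, under half of replicates reach it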;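 also: signal also drops with host cell toxicity which is not excluded here; 0% = plate median of DMSO wells and 100% = zero luminescence signal; higher percent means less beta-gal luminescence so fewer parasites; stock transfer was 50 nL into about 50 µL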
RanGTP-Impb inh: inhibitors of RanGTP-importin-beta interaction, primary screen, biochemical, FRET, CFP-Ran, YFP-importin-beta, homogeneous; cell-free CFP-Ran/YFP-importin-beta FRET ratio; inhibition, % (concentration not given with the values); 300,000 compounds, 1.1% hits;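 active = most replicates above 15%; inconclusive = exactly half above 15%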;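 also: 0% = DMSO wells and 100% = Ran loaded with GDP instead of GTP; wells of about 40 µL received 100 nL stock; the first replicate is given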
Calb FLC: C. albicans growth modulation with fluconazole | C. albicans CaCi-2 (fluconazole-resistant clinical isolate) + fluconazole, Alamar Blue growth, 48 h | growth inhibition, % (test concentration not listed) | 300,000 compounds, 0.57% hits;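 active = most replicates above 75%; inconclusive = exactly half above 75%; inactive = most below 75%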;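 also: all wells also contain fluconazole at 8 µg/ml as a sub-toxic cotreatment; 0% = median of DMSO wells and 100% = median of geldanamycin control wells; wells of about 8 µL received 7.5 nL stock; the first replicate is given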
UCH37 inh: blocks the human deubiquitinase UCH37. Q9Y5K5. purified proteasome/UCH37, Ub-AMC cleavage fluorescence. inhibition, % (concentration not given with the values). 330,000 compounds, 0.33% hits;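 active = mean of two replicates above 20%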;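 also: 0% = compound-free wells with enzyme and 100% = wells lacking proteasome; stock transfer was 100 nL into about 20 µL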
Target sequence (Q9Y5K5 whole entry, looked up): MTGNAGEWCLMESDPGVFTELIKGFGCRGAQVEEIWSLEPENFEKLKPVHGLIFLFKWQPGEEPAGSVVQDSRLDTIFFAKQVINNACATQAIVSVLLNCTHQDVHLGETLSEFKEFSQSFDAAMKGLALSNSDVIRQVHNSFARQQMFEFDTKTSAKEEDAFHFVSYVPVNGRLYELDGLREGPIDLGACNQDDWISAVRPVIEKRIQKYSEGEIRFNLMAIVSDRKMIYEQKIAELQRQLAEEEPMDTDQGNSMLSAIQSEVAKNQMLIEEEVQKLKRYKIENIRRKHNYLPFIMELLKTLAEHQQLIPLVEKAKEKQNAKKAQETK
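Reagent: Ub-AMC substrate; assay system: Proteasome-associated human UCH37 deubiquitinase; controls: no-proteasome and no-compound wells; read-out: % inhibition of Ub-AMC cleavage fluorescence; timing: 30 min preincubation with enzyme, 25 min cleavage at room temperature; signal: AMC fluorescence from Ub-AMC cleavage, excitation 355 nm, emission 460 nm; buffer or medium: Tris-HCl pH 7.4 plus ovalbumin, ATP-MgCl2, DTT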
B2AR ag: activates human beta-2 adrenergic receptor causing internalization. Am2.2-beta2AR cells, FAP receptor internalization, flow cytometry; reference of the scale not given here. response, % (concentration not given with the values). 340,000 compounds, 0.43% hits. AID 504454;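 active = response above a set limit, near 3 SD of response in nonfluorescent compounds, cut at about 42% in these data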;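 also: stock transfer was 100 nL into about 11 µL; a reference agonist was the positive control; negative values mostly stem from fluorescent compounds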
Target sequence (P07550 whole entry, looked up): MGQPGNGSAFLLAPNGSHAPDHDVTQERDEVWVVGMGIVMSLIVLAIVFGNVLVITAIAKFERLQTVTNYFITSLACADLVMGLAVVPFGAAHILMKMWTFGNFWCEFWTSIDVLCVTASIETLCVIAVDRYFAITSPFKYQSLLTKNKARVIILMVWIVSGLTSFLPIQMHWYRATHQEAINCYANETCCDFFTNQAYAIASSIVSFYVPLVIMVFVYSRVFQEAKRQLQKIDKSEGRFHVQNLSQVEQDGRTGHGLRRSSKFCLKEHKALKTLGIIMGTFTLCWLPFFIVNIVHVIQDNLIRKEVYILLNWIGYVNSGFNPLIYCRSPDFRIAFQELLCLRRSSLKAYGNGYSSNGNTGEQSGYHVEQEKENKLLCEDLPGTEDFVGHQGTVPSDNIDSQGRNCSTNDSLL
Beta cell apopt: beta cell apoptosis inhibition | INS-1E cytokine-induced death, ATP luminescence, 48 h; percent of positive-control rescue, neutral wells zero | 300,000 compounds, 0.8% hits | protection from apoptosis, % (test concentration not listed) | AID 435005;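 active = all replicates at 75% or more, or half of them and the mean; inconclusive = half reach 75% but not the mean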;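 also: 0% = cytokine-treated negative control wells and 100% = positive control rescue; higher means more ATP so stronger rescue from cytokine killing; wells of about 40 µL received 100 nL stock; the first replicate is given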
Bfl-1 A1 inh: inhibitors of the anti-apoptotic protein A1, read as caspase activation; MEF A1-2A-BIM cells, Caspase-Glo 3/7 luminescence, 3 h; percent of clofoctol response, vehicle zero; caspase activation, % (concentration not given with the values); 330,000 compounds, 0.066% hits; AID 2462;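 active = over half of replicate activation scores above 10%, or exactly half above 10 with the replicate mean above 10; inconclusive = replicate mean below 10 yet half the replicates above 10; inactive = over half of replicates below 10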;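 also: wells of about 30 µL received 50 nL stock; many hits fall short of the cut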
Starred values were filed as active, the others as inactive; ? = inconclusive; nt = no result given.

SMILES	LANA-H2B inh	T cruzi inh	RanGTP-Impb inh	Calb FLC	UCH37 inh	B2AR ag	Beta cell apopt	Bfl-1 A1 inh
CCCC(=O)NC(C)c1nc(-c2ccc(C)cc2)no1 (stereo not given)	-2.4	0	2.1	4	0.7	0	0	0.3
CC(C)Cc1nn2c(=O)cc(COc3ccc(NC(=O)c4ccco4)cc3)nc2s1	-4.3	-19	?	-1	-15	-12	3	-0.6
COc1cccc(-n2c(C)nnc2SCC(=O)Nc2ccccc2N2CCOCC2)c1	1.2	-16	4.1	16	1.8	-5	-5	-0.3
O=c1ccc(-c2ccc(S(=O)(=O)Nc3ccc(F)cc3)o2)n[nH]1	-0.7	-8	2.2	8	2.4	4	-6	-0.5
C=CCN1C(=O)C(=O)N(CC(=O)c2ccc3c(c2)CCCC3)C1=O	2.1	nt	nt	nt	3.0	-5	-11	-1.7
CC(=O)c1cccc(NS(C)(=O)=O)c1	3.0	-19	-2.9	-13	1.0	5	-1	-0.3
COC(=O)c1ccc(C(=O)OC)c(NC(=S)N2CCC(C(N)=O)CC2)c1	6.1	-10	-2.5	-18	4.2	1	-8	-0.3
CC1CCC(NC(=O)c2ccc(NC3=NC4CS(=O)(=O)CC4S3)cc2)CC1 (stereo not given)	6.0	0	-4.3	-4	0.1	1	-7	0.4
CCCCNC(=O)CCCn1c(=O)[nH]c2ccc(Br)cc2c1=O	1.1	-4	2.5	9	2.4	-20	nt	0.4
COc1cccc(NC(=O)C2CCCN(S(=O)(=O)c3cccc4cccnc34)C2)c1 (stereo not given)	-1.0	2	-2.8	0	5.0	-5	2	0.3

Part of the list above in a different format.
Value order: LANA-H2B inh | T cruzi inh | RanGTP-Impb inh | Calb FLC | UCH37 inh | B2AR ag | Beta cell apopt | Bfl-1 A1 inh
> C=CCN1C(=O)C(=O)N(CC(=O)c2ccc3c(c2)CCCC3)C1=O
    2.1 | nt | nt | nt | 3.0 | -5 | -11 | -1.7
> CCCC(=O)NC(C)c1nc(-c2ccc(C)cc2)no1 (stereo not given)
    -2.4 | 0 | 2.1 | 4 | 0.7 | 0 | 0 | 0.3
> CC(C)Cc1nn2c(=O)cc(COc3ccc(NC(=O)c4ccco4)cc3)nc2s1
    -4.3 | -19 | ? | -1 | -15 | -12 | 3 | -0.6
> CC1CCC(NC(=O)c2ccc(NC3=NC4CS(=O)(=O)CC4S3)cc2)CC1 (stereo not given)
    6.0 | 0 | -4.3 | -4 | 0.1 | 1 | -7 | 0.4

(continued)
SMILES	LANA-H2B inh	T cruzi inh	RanGTP-Impb inh	Calb FLC	UCH37 inh	B2AR ag	Beta cell apopt	Bfl-1 A1 inh
COc1ccc(-c2csc(C)n2)cc1Br	nt	-7	-0.6	0	8.4	-1	-7	-4.1
Cc1cccc(C)c1NC(=O)C1c2cccc[n+]2CC(=O)N1Cc1cccs1 (stereo not given)	0.5	-10	23*	-1	-0.3	1	0	-1.2
CCOc1ccccc1-c1nnc(CS(=O)(=O)c2ccccc2)o1	-3.4	2	5.2	5	0.8	1	-5	-1.1
Cc1ccc(NC(=O)NCCc2ccc(S(N)(=O)=O)cc2)cc1	0.3	-19	-1.3	-10	2.2	12	3	0.0
N/C(=N\OC(=O)CSc1ccccc1)c1ccccn1	-3.0	-16	1.1	4	-0.1	-15	-6	0.9
CC(C)Cn1c(SCC(=O)N2CC(=O)Nc3ccccc32)nc2ccccc21	-4.9	3	3.2	-2	5.1	-14	-4	0.3
Cc1cc(C)cc(NC(=O)c2cc3c(=O)n4ccccc4nc3s2)c1	-1.8	-4	10	40	nt	-13	2	-1.3
c1ccc2c(c1)ncn2CCN1CCCCC1	4.3	5	3.1	nt	1.2	1	-5	-0.3
CCOC(=O)CC1C(=O)NCCN1C(=O)c1cccc(OC)c1 (stereo not given)	-4.2	-17	3.2	8	1.0	-8	-6	-0.3
COc1ccc(S(=O)(=O)N(CCc2ccccc2)CC(=O)O)cc1C	-2.1	-19	2.7	0	0.4	4	-4	0.4
O=C(O)CCC(=O)CCC(=O)c1ccc(Cl)cc1	4.4	-2	5.4	-1	0.4	-1	nt	-0.3
COc1ccccc1CNC(=O)CS(=O)(=O)Cc1ccccc1	1.7	-8	-1.4	-10	3.7	-5	-3	0.1
O=C(Nc1ccccc1-c1nnn(CC(=O)N2CCOCC2)n1)c1ccccc1F	-5.4	12	0.6	-1	-0.2	-13	-4	0.8
Cn1cc(CCC(=O)N2CCCC(C(=O)c3ccc(C(C)(C)C)cc3)C2)cn1 (stereo not given)	-3.1	16	-1.4	-9	-1.9	-1	0	0.3
CC(=O)c1c(C)[nH]c(C(=O)Nc2cccc(S(=O)(=O)N(C)C)c2)c1C	0.0	-10	4.9	-1	0.7	-2	nt	0.3
Cc1ccc(S(=O)(=O)Nc2ccc(-c3nnc(SCc4ccccc4Cl)o3)cc2)cc1	-3.3	15	-2.6	3	1.9	-1	1	0.2
O=C(NNC(=O)C1CC1)c1cc(=O)[nH]c2ccccc12	-3.4	nt	nt	nt	-38	-3	0	1.7
Cc1csc(NC(=O)c2cccn2C)n1	1.2	-5	2.8	-2	2.0	-3	nt	-8.2
CCOc1ccc(NC(=O)C/C(C)=N/NC(=O)Cc2ccc(Cl)cc2)cc1	6.0	1	2.7	0	nt	-4	-8	-0.6
O=C(COC(=O)C1COc2ccccc2O1)NC1CCS(=O)(=O)C1 (stereo not given)	-1.3	-3	-3.7	10	4.9	-3	-1	-1.3

A draw from above in order of heavy-atom count, rising.
SMILES	LANA-H2B inh	T cruzi inh	RanGTP-Impb inh	Calb FLC	UCH37 inh	B2AR ag	Beta cell apopt	Bfl-1 A1 inh
CC(=O)c1cccc(NS(C)(=O)=O)c1	3.0	-19	-2.9	-13	1.0	5	-1	-0.3
COc1ccc(-c2csc(C)n2)cc1Br	nt	-7	-0.6	0	8.4	-1	-7	-4.1
O=c1ccc(-c2ccc(S(=O)(=O)Nc3ccc(F)cc3)o2)n[nH]1	-0.7	-8	2.2	8	2.4	4	-6	-0.5
CC(C)Cn1c(SCC(=O)N2CC(=O)Nc3ccccc32)nc2ccccc21	-4.9	3	3.2	-2	5.1	-14	-4	0.3
Cc1ccc(S(=O)(=O)Nc2ccc(-c3nnc(SCc4ccccc4Cl)o3)cc2)cc1	-3.3	15	-2.6	3	1.9	-1	1	0.2

(list continues)
SMILES	LANA-H2B inh	T cruzi inh	RanGTP-Impb inh	Calb FLC	UCH37 inh	B2AR ag	Beta cell apopt	Bfl-1 A1 inh
N#Cc1ccc(OCC(=O)Nc2ccc3[nH]c(=O)[nH]c3c2)cc1	0.2	-1	-0.1	nt	-5.5	1	-1	-0.2
COc1ccc(NC(C)=O)cc1S(=O)(=O)Nc1ccc2c(c1)OCCO2	-2.7	-2	-3.2	0	1.2	-5	-4	0.1
CC(C)(C)C(=O)OC/C(N)=N/OC(=O)c1ccc(Cl)c(Cl)c1	1.8	2	2.3	3	2.2	10	0	-0.8
CCOc1ccccc1Nc1ncnc2ccccc12	1.1	-1	-2.1	33	-4.1	1	-9	-0.2
O=c1[nH][nH]cc1C=Nc1ccccc1O	3.6	-8	-0.1	1	11	-4	-13	-0.1
COc1ccc(NC(=O)Nc2nnc(-c3ccccc3F)s2)cc1	-1.6	0	7.2	-3	3.5	1	1	0.0
O=C(CS(=O)(=O)Cc1ccccc1)Nc1cccnc1	1.9	-5	6.9	?	-1.1	-4	-13	-0.1
COc1c(F)c(F)c(C(=O)O)c(Nc2ccccc2)c1F	3.2	-2	4.2	-5	4.1	-3	-2	0.0
Cc1c(Cl)c([N+](=O)[O-])nn1CC(=O)NCCCN1CCOCC1	1.3	1	3.4	1	-0.4	5	-4	0.4
Cc1nc(-c2ccc(F)cc2)c(CC(=O)N2CCN(S(=O)(=O)c3cccc(F)c3)CC2)s1	2.7	4	3.0	9	5.1	5	nt	0.3
Cc1cc(C(=O)COC(=O)c2ccc(O)cc2)c(C)n1Cc1ccco1	4.5	1	3.8	2	0.2	-3	3	-0.9
COc1ccccc1C(=O)Nn1c(C)nc2ccccc2c1=O	0.2	-31	3.6	-5	3.5	-13	0	-1.5
NS(=O)(=O)c1ccc(CNC(=O)c2ccc(Cl)cc2[N+](=O)[O-])cc1	6.9	20	5.5	4	3.4	-6	-4	0.3
O=C(CCc1ccccc1)NCCCN1CCOCC1	-17	-6	-3.1	0	0.8	7	-2	-0.1
NC(=O)c1ccc(N2CCN(S(=O)(=O)c3cccs3)CC2)c([N+](=O)[O-])c1	-4.9	nt	nt	nt	1.4	8	82*	?
COc1cnn(-c2ccccc2)c(=O)c1N(C)C	-0.2	-7	-0.3	1	0.1	-1	-9	-0.7
COc1ccc(NC(=S)NNC(=O)c2cccnc2)cc1OC	2.3	-10	7.3	-5	2.6	6	1	-0.5
COc1ccc(Cn2c(C)nc([N+](=O)[O-])c2SCC(=O)O)cc1[N+](=O)[O-]	6.7	-5	2.6	1	6.5	0	nt	-0.5
Cc1ccc(N(C(=O)c2csnn2)C(C(=O)NC(C)(C)C)c2cccnc2)cc1 (stereo not given)	-0.5	-4	-2.8	0	1.2	3	-7	0.5
O=c1[nH][nH]c2cc(=O)n(-c3cccc(C(F)(F)F)c3)nc12	-4.4	-3	0.2	0	2.4	3	2	0.1
Cn1c(Cc2cccs2)nnc1SCc1nc2ccccc2[nH]1	-2.0	-19	-2.7	-4	1.4	0	-11	0.5
COc1ccc(NC(=O)C(OC(=O)c2cnc(C)cn2)c2ccccc2)cc1Cl (stereo not given)	1.7	-6	4.0	nt	0.4	2	-5	-0.3
Cc1ccc(F)cc1NC(=O)COC(=O)COc1ccc(C#N)cc1	nt	-2	2.6	-8	0.3	-2	-3	-0.5
c1ccc(CN2CCN(c3nc(-c4ccccc4)nc(-n4ccnc4)n3)CC2)cc1	-3.4	60*	-0.5	7	0.2	0	39	-0.9
Cc1nc(C)c(-c2csc(N)n2)s1	-1.3	-14	3.8	-3	-1.9	-2	-7	0.5
O=C1CSC(=O)N1CC(O)COc1ccc(Cl)cc1 (stereo not given)	0.6	-6	-3.5	-7	0.7	4	-8	-0.1
O=C(Nc1ccccc1)c1cccc(=O)o1	-2.0	-2	-0.1	1	8.1	0	-1	-1.3
CCOC(=O)CN(C(=O)COc1nc(-c2ccccc2)cc(C)c1C#N)c1ccc(C)cc1	-3.3	32	0.9	-7	-8.7	-6	3	0.3
c1ccc(CCn2nnc3ccccc32)cc1	-1.5	-10	-5.4	-1	3.4	7	-2	-3.9
CN(C)S(=O)(=O)c1ccc(Cl)c(NC(=O)COC(=O)CN2C(=O)NC(C)(C)C2=O)c1	-5.1	-1	-1.8	?	0.3	-6	-12	-0.1
